Source: PubChem
KCNQ2 inh: KCNQ2 potassium channel inhibitors, primary screen, cell-based, CHO-K1, FluxOR thallium flux, B-score (AID 2156); Potassium voltage-gated channel subfamily KQT member 2 (Rattus norvegicus), O88943; 20 min; hits give low values; only compounds with negative scores are shown here; some inactives read as strong as hits; B-score at 10 µM; actives 1.1% (n = 310,000);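 active means fluorescence ratio B-score at most minus 3 library SDs, with starting brightness B-score within 2 library SDs, cut at about -5.5 in these data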
Target sequence (O88943 whole entry, looked up): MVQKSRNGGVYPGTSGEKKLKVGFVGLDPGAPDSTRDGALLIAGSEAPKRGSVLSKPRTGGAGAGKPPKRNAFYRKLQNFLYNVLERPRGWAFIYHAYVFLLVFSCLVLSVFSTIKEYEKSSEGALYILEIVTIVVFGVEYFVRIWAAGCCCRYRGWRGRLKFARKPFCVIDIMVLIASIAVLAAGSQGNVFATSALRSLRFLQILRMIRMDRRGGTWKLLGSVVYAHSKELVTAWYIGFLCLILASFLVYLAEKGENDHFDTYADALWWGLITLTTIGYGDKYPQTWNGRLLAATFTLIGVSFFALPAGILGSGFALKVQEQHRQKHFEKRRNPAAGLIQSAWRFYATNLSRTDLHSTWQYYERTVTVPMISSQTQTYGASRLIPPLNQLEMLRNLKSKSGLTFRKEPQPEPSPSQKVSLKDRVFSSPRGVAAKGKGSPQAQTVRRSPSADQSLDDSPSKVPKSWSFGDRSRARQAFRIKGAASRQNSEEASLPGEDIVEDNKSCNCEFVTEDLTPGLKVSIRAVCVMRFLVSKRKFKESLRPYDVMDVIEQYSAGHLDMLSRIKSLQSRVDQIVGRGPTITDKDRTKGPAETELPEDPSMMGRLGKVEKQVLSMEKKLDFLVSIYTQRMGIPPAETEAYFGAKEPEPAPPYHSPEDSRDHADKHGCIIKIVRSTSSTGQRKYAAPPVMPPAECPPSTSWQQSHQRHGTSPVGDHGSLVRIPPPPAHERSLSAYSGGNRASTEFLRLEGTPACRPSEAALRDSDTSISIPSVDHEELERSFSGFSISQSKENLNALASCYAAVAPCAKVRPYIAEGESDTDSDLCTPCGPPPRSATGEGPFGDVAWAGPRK
KCNQ2 inh baseline: also measured in KCNQ2 inh; calls as there; B-score; measured here: initial fluorescence intensity artifact check;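 brightness before thallium and not channel activity; 0 = typical well and far values either way flag optical interference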
* hit, by the source's call; i = inactive.

SMILES	KCNQ2 inh	KCNQ2 inh baseline
CC1(C)CC(=O)/C(=N/Nc2ccc(Cl)cc2)CO1	i	-0.52
Cc1ccccc1NC(=O)c1ccc2nc(N3CCOCC3)sc2c1	i	-0.39
CC(=O)c1ccc(OCc2cc(C(=O)N3CCN(C4CCCC4)C(=O)C3)no2)cc1	i	1.4
CCOc1ccc(NC(=O)CN(c2cccc(C(F)(F)F)c2)S(C)(=O)=O)cc1	i	-1.4
COc1ccc(NC(=O)c2nc[nH]c2C(=O)NCC(=O)OC(C)(C)C)cc1	i	0.06
O=C(Nc1ncn[nH]1)c1ccc(Cl)c(S(=O)(=O)N2CCCCCC2)c1	i	-0.09
C#CCOCCOCCOCCNc1nc(N2CCN(C(=O)[C@H](CCC(=O)O)n3cc(C(N)Cc4ccc(O)cc4)nn3)CC2)nc(N2CCN(C(=O)[C@H](Cc3ccc(O)cc3)n3cc(C(N)[C@H](C)CC)nn3)CC2)n1 (stereo partly specified)	i	-0.39
Cc1c(CCC(=O)NCC(=O)NCC(=O)O)c(=O)oc2cc3oc4c(c3cc12)CCCC4	i	-0.77
N#CC1=C(SCC(=O)Nc2cccc3cccnc23)NC(=O)C(C#N)C12CCCCC2 (stereo unspecified)	i	-0.64
COc1ccccc1-c1cc(-c2ccc(C)cc2)nc(SCc2nnc(-c3ccccc3)o2)c1C#N	i	0.33
Oc1ccccc1/C=N/N1CCN(c2ccccn2)CC1	i	-0.02
O=S(=O)(c1ccccc1)N1CCC(n2nnc3cc(F)ccc32)CC1	i	0.2
COC(=O)Cc1c(O)ccn(C2CC2)c1=O	i	-0.24
Cc1ccc2c(CC(=O)Nc3sccc3C(N)=O)coc2c1	i	-0.02
CCCNC(=O)c1ccc(CNc2c(N3CCC(C(=O)OCC)CC3)c(=O)c2=O)cc1	i	0.01
CO/N=C(/CNC(=O)c1ccc(F)cc1)c1ccc(Cl)cc1	i	0.4
COc1ccc(CC2(CO)CCN(CC3=Cc4cc(Cl)ccc4OC3)CC2)cc1	i	-1.1
COc1ccc(-c2nnc(COc3ccc4ccccc4c3)o2)cc1OC	i	1.5
Fc1cccc(Cc2noc(CN3CCCCC3CCc3ccccn3)n2)c1 (stereo unspecified)	i	-0.62
CCOC(=O)c1csc(N)c1-c1ccc([N+](=O)[O-])cc1	i	0.02
COc1ccccc1-c1nnc(NC(=O)C(C)SC2=NCCS2)s1 (stereo unspecified)	i	0.32
Cc1onc(-c2c(F)cccc2Cl)c1C(=O)NCC1COc2ccccc2O1 (stereo unspecified)	i	0.65
C/C(=N\NC(=S)NCc1ccccc1)c1ccc(Br)cc1	i	1.3
CCCN(CC(=O)Nc1ccccc1OC)C(=O)c1cnc(Cl)c(Cl)c1	i	0.06
CCO[C@@H]1OC(C(=O)N2CCN(Cc3ccccc3)CC2)=C[C@H](c2cn(C(C)=O)c3ccccc23)[C@H]1CCCO	i	-0.78
CC(=O)c1cccc(NC(=S)Nc2ccc(F)cc2)c1	i	0.66
Cc1cc(C)nc(N2CCCC(C(=O)NCCC3=CCCCC3)C2)n1 (stereo unspecified)	i	2.7
Cc1ccccc1CN1CCN(Cc2ccccc2C(F)(F)F)CC1	i	0.16
O=c1[nH]c2cc3c(cc2cc1CN(CCc1ccccc1)Cc1nnnn1C1CCCC1)OCCO3	i	0.63
Clc1ccc(/C=C/c2ncc3ccccn23)cc1	i	4.6
CCOC(=O)c1nc(NCc2cccc(OC)c2)c2ccccc2n1	i	0.65
Cn1c(SCC(=O)N2CCN(C(=O)c3ccco3)CC2)nnc1-c1ccc(NS(C)(=O)=O)cc1	i	-1
O=C1CCCC2=C1C(c1ccco1)Nc1ccc3ccccc3c12 (stereo unspecified)	i	1.2
COc1cccc(-c2nc(CS(=O)(=O)CC(=O)NCc3ccccc3)c(C)o2)c1	-5.9*	2.2*
Cn1c(Cc2cccs2)nnc1SCC(=O)Nc1ccccc1F	i	-0.45
CN(C(=O)COC(=O)c1ccc(=O)n(Cc2ccccc2)n1)c1ccccc1	i	-1.6
Cc1ccsc1C1C(C(=O)O)c2ccccc2C(=O)N1C (stereo unspecified)	i	-0.09
CCC(=O)Nc1ccc(C(=O)CSc2nc3ccccc3cc2CC)cc1	i	-0.86
CCOc1ccc(C2CC(=O)NC3=C2C(=O)CCC3)cc1 (stereo unspecified)	i	0.01
CCn1cc(C(=O)O)c(=O)c2cc(F)c(N3CCN(C(=S)NC(=O)c4ccccc4F)CC3)cc21	i	1.8
O=C(COC(=O)/C=C/c1ccc(Cl)cc1)Nc1ccc2[nH]c(=O)[nH]c2c1	i	0.68
O=C(O)COc1ccccc1Cc1ccccc1	i	-0.92
COc1ccc(C(=O)Nc2ccc3ccccc3n2)c(OC)c1OC	i	-1.2
CCN(C(=O)C1CSC2(C)CCC(=O)N12)c1nc2c(C)cccc2s1 (stereo unspecified)	i	0.25
CCN(CC)CCCC(C)NC(=O)c1cc(=O)c2ccccc2o1 (stereo unspecified)	i	-0.48
Cc1nc(-c2cccc(NC(=O)Cc3ccccc3)c2)cs1	i	0.14
CN(C)S(=O)(=O)c1cccc(NC(=O)CN2C(=O)C3C4C=CC(C4)C3C2=O)c1 (stereo unspecified)	i	-1.1
CCOC(=O)NC(=O)CSc1ccc2ccccc2n1	i	-2.5
COc1ccc(CCNC(=O)C2CCCN(C(=O)c3ccc(Cl)cc3)C2)cc1 (stereo unspecified)	i	-0.53
CCOC(=O)C(C)NC(=O)CCc1nnc2ccc(N3CCC(C)CC3)nn12 (stereo unspecified)	i	-0.35
CC(C)(C)NC(=O)CSc1nnc(Cc2ccccc2)n1CC1CCCO1 (stereo unspecified)	i	0.12
O=C(O)CCNS(=O)(=O)c1ccc(Oc2ccccc2)cc1	i	0.16
CNC(=S)N(CCc1c(C)[nH]c2ccc(C)cc12)Cc1cccnc1	i	2.4
CCOc1ccccc1N1CCN(Cc2ccc(Br)s2)CC1	i	0.66
O=C(O)CCC(=O)N1N=C(c2ccco2)CC1c1ccco1 (stereo unspecified)	i	-0.2
COc1ccc(C)cc1S(=O)(=O)N1CCC(C(=O)N2CCOCC2)CC1	i	1
Cc1cc(CC(C)C)n(-c2nc3ccccc3c(=O)n2OCc2ccccc2)n1	i	0.02
COc1ccc(OC)c(C2C(C(C)=O)=C(C)Nc3ncnn32)c1 (stereo unspecified)	i	-0.15
CCCCNC(=O)NS(=O)(=O)c1ccc(NS(=O)(=O)c2ccccc2)cc1	i	1.7
COc1cc(S(=O)(=O)N2CCOCC2)ccc1NC(=O)CSc1nnc(N)s1	i	-0.36
More entries follow.
SMILES	KCNQ2 inh	KCNQ2 inh baseline
COc1ccc([C@H]2C=C3CN(C(=O)OC(C)(C)C)S(=O)(=O)[C@H]3C[C@H]2OC(=O)c2ccc(C(F)(F)F)cc2)cc1	i	-0.21
Nc1nonc1C(=O)NCCNc1ccc([N+](=O)[O-])cn1	i	0.23
COc1cccc(CN(C)C(=S)Nc2ccc(C)c(C)c2)c1	i	-2.4
CCNC(=O)/C(=C\C=C\c1ccccc1)NC(=O)c1ccc(Br)o1	i	-0.1
CCC(Sc1nc2ncccc2[nH]1)C(=O)NC1CCCC1 (stereo unspecified)	i	-0.01
COc1cccc(N2C(=O)CC(N3CCc4ccccc43)C2=O)c1 (stereo unspecified)	i	0.76
CC(C)N(Cc1ccc(F)cc1)C(=O)c1cc2ccccc2oc1=O	i	2.9
COC(=O)c1ccccc1NC(=O)c1ccccc1SC	i	-0.57
c1cc2c3c(cccc3c1)C(N1CCOCC1)=N2	i	0.27
CC1CN(C(=O)c2ccc(COc3ccccc3Br)o2)CC(C)O1 (stereo unspecified)	i	2
COc1ccc(CC(=O)NC(=S)NNC(=O)COc2c(C)cccc2C)cc1	i	-0.76
O=C1NN=C(c2ccc(Cl)cc2)CC1c1cccc(Cl)c1 (stereo unspecified)	i	0.96

6 neighbouring records already listed, for reference:
SMILES	KCNQ2 inh	KCNQ2 inh baseline
COc1ccc([C@H]2C=C3CN(C(=O)OC(C)(C)C)S(=O)(=O)[C@H]3C[C@H]2OC(=O)c2ccc(C(F)(F)F)cc2)cc1	i	-0.21
Nc1nonc1C(=O)NCCNc1ccc([N+](=O)[O-])cn1	i	0.23
COc1cccc(CN(C)C(=S)Nc2ccc(C)c(C)c2)c1	i	-2.4
CCNC(=O)/C(=C\C=C\c1ccccc1)NC(=O)c1ccc(Br)o1	i	-0.1
CCC(Sc1nc2ncccc2[nH]1)C(=O)NC1CCCC1 (stereo unspecified)	i	-0.01
COc1cccc(N2C(=O)CC(N3CCc4ccccc43)C2=O)c1 (stereo unspecified)	i	0.76

Later entries.
SMILES	KCNQ2 inh	KCNQ2 inh baseline
CCOC(=O)N1CCC(NC(=O)Cn2cc3c(n2)CCC(C)C3)CC1 (stereo unspecified)	i	0.97
Cc1sc(NC(=O)COc2ccccc2)c(C#N)c1-c1ccccc1	i	-0.78
COC(=O)c1cccc(C23CC4(C2)[C@H](CN(C)[C@@H]4c2ccccc2)C3c2ccccc2)c1 (stereo partly specified)	i	0.98
CCOC(=O)C[C@H]1c2ccccc2S(=O)(=O)N1c1ccccc1	i	0.02
CCN1c2ccccc2N(C)C1(C)c1ccccc1 (stereo unspecified)	i	0.08
COc1ccc(-c2nnc(NC(=O)CSc3ccc(C)cc3)s2)cc1OC	i	-0.34
COC(=O)c1cc(S(=O)(=O)NCc2cc(OC)c(OC)c(OC)c2)cn1C	i	0.92
CC1(OC(=O)C2CCCC2)C(=O)C=C2C=C(c3ccsc3)N(Cc3ccc4c(c3)OCO4)C=C2C1=O (stereo unspecified)	i	2.2
CCCc1cc(NCCCn2ccnc2)n2nc(C)c(-c3ccccc3)c2n1	i	7
Cc1cc2cc(CNC(=O)Cc3ccc([N+](=O)[O-])cc3)ccc2n1C	i	1.4
O=C(CCC(=O)N(CC(=O)NC1CCCC1)Cc1ccc2c(c1)OCO2)Nc1ccccn1	i	-0.2
CCOC(=O)c1ccc(NS(=O)(=O)c2cnc[nH]2)cc1	i	0.51
NC(=O)c1nsc(C(=O)N(CC(=O)NC2CCCCC2)c2cccc(F)c2)c1N	i	-1.2
CCSc1nc(C2CC2)cc(-c2cccs2)c1C#N	i	1.9
CC(C)(C)C(=O)NNC(=O)c1cc(C(C)(C)C)nn1Cc1ccccc1	i	0.69
Cn1c2c(c(=O)n3ncnc13)CCCC2	i	1
CCc1ccc(N2CC(C(=O)OCC(=O)NNC(=O)c3ccccc3)CC2=O)cc1 (stereo unspecified)	i	-0.46
CCCN(CCO)Cc1cccc(Oc2ccccc2)c1	i	0.04
Cc1ccccc1Nc1nc(N)nc(COC(=O)C(NC(=O)c2ccco2)C(C)C)n1 (stereo unspecified)	i	1.8
CC(C)C(NC(=O)OCc1ccccc1)C(=O)NCC(=O)OC(C)(C)C (stereo unspecified)	i	-0.46
Cc1cc(C)n(-c2ccc(C(=O)OCC(=O)NC(c3ccccc3)c3ccccc3)cc2)n1	i	0.02
CCCN1C(=O)c2cc(C(=O)Nc3ccccc3OC)ccc2C1Nc1ccccc1OC (stereo unspecified)	i	-0.16
OCC#Cc1ncc(C(F)(F)F)cc1Cl	i	2.1
Cn1c(=O)c(=O)n(C)c2cc(N3CCCC3)c(NS(=O)(=O)c3ccc(Cl)cc3)cc21	i	1.1
CCOC(=O)c1c(NC(=O)C(NCCN(C)C)c2ccccc2)sc2c1CCCC2 (stereo unspecified)	i	0.71
O=C(Nc1ccccc1-c1ccccc1)C1CCCN(c2ncccn2)C1 (stereo unspecified)	i	-0.97
COC(=O)c1ccc(N2C(=O)CC(N(C)CCc3ccc(OC)c(OC)c3)C2=O)cc1 (stereo unspecified)	i	-0.38
Cc1cc(C)cc(Oc2nc(C(F)(F)F)nc3ccccc23)c1	i	-0.72
Cc1ccccc1NC(=S)N(Cc1ccccn1)Cc1ccccc1Cl	i	-0.81
COc1ccc(CCNC(=O)C(=O)NCc2ccc(C)cc2)cc1OC	i	0.22
COc1ccc(-c2csc(Nc3ccccc3)[n+]2Cc2ccccc2)cc1	i	-0.06
COc1ccc(CNC(=O)C2CCCN(c3nn4c(=O)cc(C)nc4s3)C2)cc1 (stereo unspecified)	i	-0.28
CC1(C)CC(=O)C(C=Nc2cc(C(=O)c3ccccc3)ccc2N)=C(O)C1	i	-0.27
O=C(COc1ccc(Cl)cc1Cl)NCCCn1ccnc1	i	1.1
Cn1nccc1C(=O)N/N=C/c1c(O)ccc2ccccc12	i	-2.6
CCOc1ccc(N2CC(C(=O)Nc3ccc(S(=O)(=O)N4CCCCC4)cc3)CC2=O)cc1 (stereo unspecified)	i	-0.44

The last three records of the part above lead into the next:
SMILES	KCNQ2 inh	KCNQ2 inh baseline
O=C(COc1ccc(Cl)cc1Cl)NCCCn1ccnc1	i	1.1
Cn1nccc1C(=O)N/N=C/c1c(O)ccc2ccccc12	i	-2.6
CCOc1ccc(N2CC(C(=O)Nc3ccc(S(=O)(=O)N4CCCCC4)cc3)CC2=O)cc1 (stereo unspecified)	i	-0.44
O=C(CN(Cc1ccco1)C(=O)c1ccccc1)Nc1ccc(Cl)c(Cl)c1	i	0.2
O=C(Cc1ccccc1)NC(c1ccco1)c1c(O)ccc2ccccc12 (stereo unspecified)	i	-0.03
COc1cc(-n2c(=O)c3ccccc3n(Cc3cccc(C)c3)c2=O)cc(OC)c1OC	i	-1.5
COc1ccc(S(=O)(=O)Nc2c(C)cc(C)cc2C)c2cccnc12	i	0.58
Cc1cnn(-c2cc(N/N=C/c3ccccc3Cl)ncn2)c1	i	0.03

Not all compounds are listed; count on the stated rates, not on these rows.
